Mtb hypoxia rep: PubChem AID 1159583; M. tuberculosis hypoxia-regulated fluorescent reporter, fluorescence; 0.1% of 300,000 active; fluorescence inhibition, % (concentration not given with the values);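 active means 35 to 45% if threefold the growth effect, above 45% if 1.5-fold the growth effect; inactive means the rest, general growth blockers included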;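 further: wells of about 50 µL received 100 nL stock; 0% = vehicle wells and 100% = reference inhibitor wells; whole bacteria with a GFP reporter of the hypoxia response; strong numbers were not always called active; many hits fall short of the cut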
ugtP null kill: growth inhibition of ugtP-null S. aureus, primary screen, RN4220 ugtP deletion, OD600. 16 h; some inactives read as strong as hits. growth inhibition, % (concentration not given with the values). 0.54% of 330,000 active;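 active means z-score under -3 and OD600 up to 0.15 on both plates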;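 further: plate controls were untreated wells for no effect and antibiotic for full effect; wells of about 80 µL received 100 nL stock; the first replicate is given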
BJeLR viability: MLPCN primary cell-based screen for lethality selective to Ras in HRASV12 cells | BJeLR (HRASV12) viability, CellTiter-Glo ATP luminescence, 48 h; reference of the scale not given here | inhibition, % (test concentration not listed) | 0.17% of 300,000 active | AID 1554, 2009;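 active means replicate mean above 50%; inconclusive means above 50% but judged a plate artefact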;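 further: 50 nL library stock added to about 25 µL; numbers are from one replicate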
Sa RN4220 lethal: growth inhibition of S. aureus RN4220, primary screen, OD600; 16 h; inhibition, % (no concentration beside the values); 0.33% of 330,000 active; AID 1259311, 2017;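 active means z-score of -3 or lower and OD600 up to 0.18 on both plates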;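 further: plate controls were untreated cells for no effect and reference antibiotic for full effect; stock transfer was 100 nL into about 80 µL; one replicate is shown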
Autofluor counter: counter-screen for toxin protease inhibitors: compound fluorescence. compound autofluorescence counterscreen, microsphere flow cytometry; stronger effect = higher value. fluorescence intensity (concentration not given with the values). 3.1% of 360,000 active;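 active means at least 3 SD above the mean of all compounds, about 16000 in these data; inconclusive means too few beads counted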;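 further: 100 nL of 1 mM stock went into each well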
PrP UTR inh: inhibition of PrP 5' UTR reporter expression; cell-based PrP 5' UTR mRNA reporter, plate reader; inhibition, % (test concentration not listed); 0.35% of 340,000 active;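 active means every replicate at 50% or more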;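 further: 0 = median of the neutral control wells; tested in H4 reporter cells; numbers are from one replicate; inactives centre near -14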
Mtb hypoxia rep growth: recorded beside Mtb hypoxia rep, whose call it bears; growth inhibition, %; measured here: M. tuberculosis growth (absorbance);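 0% = vehicle and 100% = reference antibiotic; read after six days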
* = called active by the depositor; ? = inconclusive; / = not tested or not shown.

Every second line gives: Sa RN4220 lethal	PrP UTR inh	BJeLR viability	Autofluor counter	Mtb hypoxia rep growth	Mtb hypoxia rep	ugtP null kill
O=C(/C=C/Nc1ccc(OC(F)(F)F)cc1)C(F)(F)F
    1.7	-11	0	2767	/	/	3
CCOc1ccc(C(C(=O)NC2CCCC2)N(C(=O)c2snc(C(N)=O)c2N)c2cccc(O)c2)cc1 (centres undefined)
    1.3	-6	14	3752	-3	-5	8
CCOC(=O)c1oc2ccc(S(=O)(=O)n3nc(-c4ccc(OC)cc4)cc3N)cc2c1C
    7.4	-17	1	5282	1	3	10
CC(C)=CC(=O)OCC(=O)Nc1cc([N+](=O)[O-])ccc1F
    2.7	-24	0	1981	3	11	6
O=C(COC(=O)c1cc(NS(=O)(=O)c2cccs2)ccc1O)Nc1ccc(F)c(F)c1F
    -11	-19	-4	4286	-4	0	2
COc1cc(NC(=O)C(=O)N2CCN(C)CC2)c(OC)cc1Cl
    2.1	-8	0	6306	10	1	-1
O=C(Cn1cnc(S(=O)(=O)N2CCOCC2)c1)Nc1ccc(OC(F)(F)F)cc1
    0.4	-3	4	4826	5	3	-1
COC(=O)c1c(NC(=O)CN2CCCc3ccccc32)sc(C)c1C
    -4.2	-38	3	2943	1	12	35
CC1CCN(S(=O)(=O)c2cc([N+](=O)[O-])ccc2Cl)CC1
    12	-20	-11	2033	12	9	2
c1ccc(CNc2nc(NCc3ccco3)nc(N3CCOCC3)n2)cc1
    2.9	-20	-6	2508	-2	6	4
COc1ccccc1CNC(=O)C(=O)NCC1OCCN1C(=O)c1ccc(Cl)cc1 (centres undefined)
    4.0	-13	-5	5785	-12	-14	1
CCN(CC)CCCn1c2c(c(SCC(=O)N3CCCc4ccccc43)nc1=O)CCC2
    2.5	-20	-4	5633	5	9	5
Cc1ccn2c(-c3n[nH]c(=S)n3C)c(C)nc2c1
    /	-8	1	11085	/	/	/
Cn1c(=O)c2c(nc(SCC(=O)c3ccccc3F)n2C)n(C)c1=O
    5.1	/	-7	/	-4	16	3
Cc1nnc(SCC(=O)Nc2nc3ccccc3s2)n(N)c1=O
    5.9	-39	9	9666	-4	6	5
c1ccc(-c2ccnc3nc(-n4cccc4)nn23)cc1
    5.7	-7	5	16359*	7	-3	6
CN(CC(=O)O)S(=O)(=O)c1cc(Cl)ccc1Cl
    4.9	-17	-1	7073	-2	1	0
CCc1c(O)cc(=O)n(-c2ccccc2)c1-c1ccccc1
    16	11	-4	11126	5	2	-1
Cc1nn(-c2ccccc2)c2sc(C(=O)n3cccn3)cc12
    6.4	-36	-1	4482	4	7	6
COc1ccc(-c2nnc(SCC(=O)N3CCOCC3)o2)cc1
    -5.8	-49	-3	2499	-1	4	2
COc1ccc(-c2c(-c3ccsc3)oc3ccc(N4CCOCC4)cc23)cc1
    -5.5	-2	0	3731	4	-10	72
CC(Oc1ccc(Br)cc1)C(=O)Nc1nc(-c2ccccn2)cs1 (centres undefined)
    /	24	6	5739	/	/	/
COC(=O)c1cc(CNC(=O)c2ccccc2Cl)ccc1OC
    0.3	2	-1	2054	11	-1	0
O=C(NCc1ccccc1C(F)(F)F)C1CCC(=O)N(C2CCCCCC2)C1 (centres undefined)
    -0.8	-6	-11	5482	3	16	4
CC(=O)N1CCN(C(=O)Cn2c(=O)oc3ccccc32)CC1
    3.4	-14	3	2331	/	/	1
CC(=O)Nc1ccc(S(=O)(=O)N2CCC(C(=O)O)(c3ccccc3)CC2)cc1
    2.3	-14	2	3628	7	-2	6
CC(CCc1ccccc1)NC(=O)CSc1ccccn1 (centres undefined)
    6.1	-7	4	4948	7	7	15
COc1ccccc1NNC(=O)c1cc(C(C)(C)C)nn1Cc1ccccc1
    0.5	-22	1	/	1	3	4
COc1cc(NC(=O)COC(=O)c2ccc3ccccc3n2)cc(OC)c1
    2.3	-15	/	8791	2	5	-1
O=C(CCc1nnc(CCC2CCCCC2)o1)NCc1ccon1
    -0.8	-26	3	3349	14	13	5
O=[N+]([O-])c1cc([N+](=O)[O-])c(Oc2cc(Cl)ccc2Cl)cc1NC1CCCCCCC1
    -6.2	0	2	3765	8	9	-24
O=C(NCCc1ccccc1)C1CCCN1C(=O)Nc1ccccc1 (centres undefined)
    1.5	12	-7	3947	-2	-2	0
CN(C(=O)c1cc2sccc2n1C)C1CCCCC1
    -2.7	-44	4	11248	24	19	7
CCOC(=O)C1=CN(Cc2ccco2)S(=O)(=O)N(CC)C1c1ccc(F)c(Cl)c1 (centres undefined)
    -1.4	-6	/	3671	-4	-7	-1
Cc1cc(O)ccc1Nc1nc(-c2sc(N)nc2C)cs1
    9.3	-13	-4	10671	12	-1	-10
CC(C)C(=O)NNC(=O)CSc1nc(C2CCCCC2)nc2ccccc12
    5.6	-4	3	2445	5	-6	1
Cc1cc(C)c2c(c1)c(C)cc1nnc(SCC(=O)c3cccs3)n12
    4.8	-9	8	5592	6	1	2
CCOC(=O)C1CCCCN1Cc1cc(Cl)ccc1O (centres undefined)
    7.7	-12	-3	11001	13	18	11
CCc1ccc(C(=O)NNC(=O)CCc2nc3ccccc3c(=O)[nH]2)cc1
    -1.1	-4	-4	5572	7	6	1
O=C(COC(=O)C1CCC1)Nc1ccc(Cl)cn1
    1.0	-19	/	3917	2	2	1
COCCNC(=O)/C(C#N)=C/c1ccc(C(=O)O)cc1
    /	-9	1	4179	/	/	/
O=C(O)/C(=C1/OC(=O)c2ccccc21)c1ccccc1
    /	-21	0	2946	/	/	/
CC(=NNC(=O)c1ccncc1)c1cc2ccccc2oc1=O
    5.1	/	/	/	-1	-2	3
COC(C(=O)Nc1ccccc1F)c1ccccc1 (centres undefined)
    1.8	-10	-1	2716	/	/	0
C/C(=C\C(=O)c1ccccc1)NCc1ccc(F)cc1
    2.0	-30	11	6035	/	/	6
Cc1cc(NC(=O)COC(=O)C2CC2)ccc1Br
    -1.7	5	/	2743	-1	-1	-3
O=S(=O)(c1ccc(F)cc1)N1CCN(C(=S)NCC2CCCO2)CC1 (centres undefined)
    4.8	-29	12	4373	-3	-3	4
O=C(c1cccc(F)c1F)N1CCCC1
    -0.1	-22	2	3098	/	/	13
C=CCN1CCN(C(=O)c2cc3c(s2)CCC(CC)C3)CC1 (centres undefined)
    1.6	-13	-6	5771	-10	11	2
CC(C)C(c1nnnn1Cc1ccc(F)cc1)N1CCN(C(=O)c2ccco2)CC1 (centres undefined)
    0.7	0	-4	2786	/	/	0

More entries
Every second line gives: Sa RN4220 lethal	PrP UTR inh	BJeLR viability	Autofluor counter	Mtb hypoxia rep growth	Mtb hypoxia rep	ugtP null kill
CCCc1cc(=O)oc2c(C)c(OCC(=O)NCCCN3CCOCC3)ccc12
    1.4	3	2	6091	12	5	1
COc1ccc2c(-c3ccccc3)cc(SCC(=O)N(C)C)nc2c1
    19	-7	-4	5054	1	4	3
CN1CCN(c2ccccc2NC(=O)c2ccc([N+](=O)[O-])cc2Cl)CC1
    4.3	-14	9	3918	7	8	2
O=C(NCC1CCCO1)c1cn(Cc2ccccc2Cl)nc1-c1ccccc1 (centres undefined)
    0.2	7	/	6175	0	-3	3
COc1ccc(C(=O)Nc2sc(C)c(C)c2CN2CC(C)OC(C)C2)cc1 (centres undefined)
    3.7	-58	4	2132	2	-2	3
CCOc1ccc(S(=O)(=O)NCc2ccco2)cc1
    -2.8	-4	-2	3940	/	/	2
C/C(N)=C(\C#N)C(=O)NCc1ccccn1
    5.0	-29	0	4352	4	5	2
COCCSc1nnc(-c2cccc(C#N)c2)n1C
    -1.6	21	1	14418	-6	-4	-2
CN(C)S(=O)(=O)N1CCC(Oc2ccc(C(=O)N3C[C@H]4CC[C@H]3C4)cc2)CC1
    -1.2	3	-1	5584	13	-3	-7
Fc1ccc(NN=Cc2cccnc2)c(F)c1
    -0.1	/	/	/	13	12	-5
CN(CC(=O)Nc1cc(Cl)ccc1Cl)C1CCS(=O)(=O)C1 (centres undefined)
    3.8	11	/	3980	3	1	3
Cc1c(NC(=O)CSc2ncnc3c2cnn3-c2ccccc2)c(=O)n(-c2ccccc2)n1C
    2.3	-1	-15	?	8	7	6
O=C(N/N=C/c1cccs1)c1cccnc1
    /	-23	-5	5997	/	/	/
Cc1ccc(C2N(c3cccc(Cl)c3)C(=O)N3CCCN23)cc1 (centres undefined)
    2.7	-24	1	4638	5	4	4
O=C(NNc1nc(-c2ccc(Br)cc2)cs1)c1ccco1
    -1.8	-44	15	3853	2	7	21
CCOC(=O)c1ccccc1NC(=O)c1ccc2c(SCC(=O)O)c3c(nc2c1)CCCC3
    29	-8	3	5722	7	4	5
COc1ccccc1N(CC(=O)NC1CCCC1)C(=O)C1(C)CC(=O)N=C2C=CC(C)=CN21 (centres undefined)
    -0.3	-18	-6	3673	-5	8	3
C[C@H]1CCC(=O)N([C@H](CSc2ccccc2)Cc2ccccc2)CC1
    /	-2	7	4210	/	/	/
Cc1onc(-c2ccccc2Cl)c1C(=O)O/N=C(\N)c1ccccc1
    3.1	-15	10	16593*	10	4	8
COc1ccc(Nc2nc(Cl)nc(Nc3ccc(OC)cc3)n2)cc1
    3.0	-8	5	4450	4	3	10

Overlap with the part before: 2 compounds; new compounds follow.
Every second line gives: Sa RN4220 lethal	PrP UTR inh	BJeLR viability	Autofluor counter	Mtb hypoxia rep growth	Mtb hypoxia rep	ugtP null kill
Cc1onc(-c2ccccc2Cl)c1C(=O)O/N=C(\N)c1ccccc1
    3.1	-15	10	16593*	10	4	8
COc1ccc(Nc2nc(Cl)nc(Nc3ccc(OC)cc3)n2)cc1
    3.0	-8	5	4450	4	3	10
CCOc1cc(/C=N/NC(=O)CNc2ccc(C)cc2)ccc1OC(=O)c1ccccc1
    /	-67	-12	8336	/	/	/
CC(=O)Nc1ccc(C(=O)NCCc2ccccc2)cc1
    -1.2	-42	1	2451	1	-3	1
COc1ccc(N2CCN(c3ccc(N4C(=O)COCC4=O)cc3[N+](=O)[O-])CC2)cc1
    6.7	-21	-6	2089	9	2	-11
O=C(/C=C/c1ccccc1Cl)Nc1cccc(O)c1
    -3.5	-48	4	2834	3	10	-9
O=C(O)CCCCCNC(=O)Cn1nnc2ccccc2c1=O
    3.0	-2	2	5432	-6	-3	1
C=CCc1c(C)nc(-c2ccccc2)nc1N/N=C/c1ccncc1
    /	-22	4	4714	/	/	/
O=S(=O)(CCN1CCSCC1)c1ccccc1
    3.4	-14	-3	6087	0	-3	4
CCCOc1ccc(CSc2nc3ccccc3[nH]2)cc1
    1.2	-167	11	22003*	10	15	31
COc1cc(S(=O)(=O)NCc2ccc3c(c2)OCO3)c(OC)cc1C
    1.1	-38	-11	3610	11	9	11
COc1ccc(N2CCN(CC(=O)NCc3ccc(Cl)cc3)CC2)cc1
    0.3	-52	-10	3985	15	7	6
O=C(COc1ccccc1)NNC(=O)c1ccc(Cl)cc1
    0.8	-25	/	9115	1	0	3
N/C(Cc1ccc(Cl)cc1)=N\OC(=O)C1CCCCC1
    0.6	-30	5	2676	2	8	17
COc1ccc(NS(=O)(=O)N2CCCCC2)cc1
    3.1	-18	/	4104	11	9	3
Cc1nn(C)c(C)c1NC(=O)c1cnn2c(C(F)F)cc(-c3ccccc3)nc12
    0.0	/	5	/	12	15	6
O=C(O)COc1ccc(/C=C2\SC(=Nc3ccccc3)N(c3ccccc3)C2=O)cc1
    1.1	-21	-7	2208	2	-14	3
CC(C)CCNC(=O)C(c1ccncc1)N(Cc1cccs1)C(=O)Cn1nnc(-c2ccc(F)cc2)n1 (centres undefined)
    -2.7	-27	-8	3565	/	/	9
Cc1cc(C2(O)C(=O)Nc3ccccc32)ccc1F (centres undefined)
    3.3	4	-3	3969	-5	-4	11

In the list so far, three contain a cyano group:
Every second line gives: Sa RN4220 lethal	PrP UTR inh	BJeLR viability	Autofluor counter	Mtb hypoxia rep growth	Mtb hypoxia rep	ugtP null kill
COCCNC(=O)/C(C#N)=C/c1ccc(C(=O)O)cc1
    /	-9	1	4179	/	/	/
C/C(N)=C(\C#N)C(=O)NCc1ccccn1
    5.0	-29	0	4352	4	5	2
COCCSc1nnc(-c2cccc(C#N)c2)n1C
    -1.6	21	1	14418	-6	-4	-2

Screening results as filed in PubChem BioAssay.
